Screening data deposited in PubChem BioAssay by several laboratories.
Beta2AR agonist: activates human beta-2 adrenergic receptor causing internalization; P07550; response, % (test concentration not listed); Am2.2-beta2AR cells, FAP receptor internalization, flow cytometry; reference of the scale not given here; 340,000 tested, 0.43% active;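 active = response above a set limit, near 3 SD of response in nonfluorescent compounds, cut at about 42% in these data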;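 also: stock transfer was 100 nL into about 11 µL; a reference agonist was the positive control; negative values mostly stem from fluorescent compounds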
Target sequence (P07550 whole entry, looked up): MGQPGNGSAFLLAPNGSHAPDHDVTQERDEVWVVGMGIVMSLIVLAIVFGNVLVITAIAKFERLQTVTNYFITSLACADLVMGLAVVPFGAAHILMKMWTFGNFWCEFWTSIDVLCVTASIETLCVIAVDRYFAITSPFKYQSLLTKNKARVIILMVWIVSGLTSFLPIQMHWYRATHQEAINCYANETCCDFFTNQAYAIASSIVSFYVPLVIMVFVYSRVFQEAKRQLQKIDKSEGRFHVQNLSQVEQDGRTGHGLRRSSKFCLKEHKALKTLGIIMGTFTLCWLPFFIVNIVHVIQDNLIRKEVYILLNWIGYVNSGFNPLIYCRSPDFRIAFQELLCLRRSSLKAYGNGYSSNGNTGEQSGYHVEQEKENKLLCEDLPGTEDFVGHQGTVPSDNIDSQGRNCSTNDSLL
E coli growth: inhibitors of Escherichia coli growth | AID 1053175 | OD600 absorbance (test concentration not listed) | 330,000 tested, 0.21% active | OD600, 23 h; stronger effect = lower value;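 active = OD600 absorbance below the run mean of sample wells minus 3.6 SD, in any replicate, cut at about 0.56 in these data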;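 also: stock transfer was 300 nL into about 60 µL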
FGF22 binding: FGF22 (human) thermal shift binding; Q9HCT0; recombinant FGF22 thermal shift, SYPRO orange fluorescence; percent of sucrose octasulfate shift, DMSO zero; calls only at 9.99 µM; 340,000 tested, 1.5% active; AID 651658;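 active = melting point raised past a set limit in the mean and every replicate; inconclusive = no clear call; three in four hits are not shown here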
HNF4A DNA FP: change in binding of human HNF4 alpha to DNA; P41235; HNF4a-FITC DNA binding, fluorescence polarization, 1 h; activity change, % at 10 µM; 360,000 tested, 0.3% active; in the data active = activity change above about 30%, passing the limit was not always enough;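 also: controls were the assay level and a saturating level of protein; the project sought stronger binding though the title names inhibitors; some compounds called inactive have numbers as strong as hits; positive values seem to mean higher polarization but the record does not say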
UCH37 DUB inh: inhibitors of human deubiquitinating enzyme UCH37; inhibition, % (concentration not given with the values); 330,000 tested, 0.33% active; purified proteasome/UCH37, Ub-AMC cleavage fluorescence; Q9Y5K5;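 active = mean of two replicates above 20%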;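 also: 0% = compound-free wells with enzyme and 100% = wells lacking proteasome; stock transfer was 100 nL into about 20 µL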
Target sequence (Q9Y5K5 whole entry, looked up): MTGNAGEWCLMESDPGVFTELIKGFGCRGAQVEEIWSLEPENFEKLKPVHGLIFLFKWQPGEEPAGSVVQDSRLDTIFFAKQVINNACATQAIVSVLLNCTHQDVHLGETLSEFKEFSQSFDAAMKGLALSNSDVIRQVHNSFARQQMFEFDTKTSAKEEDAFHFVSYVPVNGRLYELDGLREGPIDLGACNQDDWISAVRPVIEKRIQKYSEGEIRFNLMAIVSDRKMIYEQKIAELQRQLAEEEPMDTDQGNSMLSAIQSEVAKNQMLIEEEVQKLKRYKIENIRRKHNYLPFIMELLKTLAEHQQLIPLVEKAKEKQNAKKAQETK
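System: Proteasome-associated human UCH37 deubiquitinase; Input: 0.15 nM proteasome in added enzyme buffer; Also added: Ub-AMC substrate from 1 µM stock; Incubation: 30 min compound-proteasome preincubation then 25 min substrate reaction, room temperature; Detection: fluorescence, ex 355 nm, em 460 nm; Read-out: % inhibition of Ub-AMC cleavage fluorescence; Benchmarks: no-proteasome and no-compound wells.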
ALR H2O2 inh: blocks human ALR sulfhydryl oxidase activity. P55789. purified ALR, DTT oxidation, H2O2 HRP-luminol luminescence. inhibition, % (no concentration beside the values). 290,000 tested, 3.8% active. AID 485317;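 active = mean and each replicate at 75% or more; inconclusive = only one of the two met; inactive = neither met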;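 also: stock transfer was 7.5 nL into about 7.5 µL; 0% = neutral wells and 100% = wells with inactivated enzyme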
Target sequence (P55789 whole entry, looked up): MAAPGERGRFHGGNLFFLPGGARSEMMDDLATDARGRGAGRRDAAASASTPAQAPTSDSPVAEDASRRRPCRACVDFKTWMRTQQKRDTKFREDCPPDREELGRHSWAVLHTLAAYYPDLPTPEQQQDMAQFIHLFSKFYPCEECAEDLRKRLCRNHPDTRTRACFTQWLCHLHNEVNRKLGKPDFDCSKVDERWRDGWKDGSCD
rRNA inh HTS: inhibitors of bacterial rRNA selective over humanized ribosomes | 350,000 tested, 1.6% active | E. coli WT GFP vs humanized-ribosome RFP mutants, fluorescence, 24 h; stronger effect = lower value; DMSO median 0, no signal -100 | AID 720706 | GFP signal change (wild-type ribosome), % (no concentration beside the values);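 active = significant combined selectivity score with lowered wild-type GFP, culture density cut under 30%, mutant RFP and density less affected; inactive = any of these conditions unmet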; also: one replicate is shown; some compounds called inactive have numbers as strong as hits
rRNA inh HTS OD600: recorded beside rRNA inh HTS, whose call it bears; OD600 change, %; measured here: OD600 growth;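 optical density of the mix in the first replicate; 0 = DMSO median and -100 = no signal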
rRNA inh HTS RFP: recorded beside rRNA inh HTS, whose call it bears; RFP signal change, %; measured here: RFP humanized mutant strains;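 first replicate; 0 = DMSO median and -100 = no signal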
Starred values were filed as active, the others as inactive; i = inactive; ? = inconclusive; . = no result given; & = joins results of further samples. Some of the compounds tested (hit frequency here may not be typical).

#	SMILES	rRNA inh HTS	ALR H2O2 inh	E coli growth	rRNA inh HTS OD600	FGF22 binding	UCH37 DUB inh	Beta2AR agonist	HNF4A DNA FP	rRNA inh HTS RFP
1	COC(=O)c1ccc(-c2c(-c3ccccc3)ncc3cc(F)ccc23)cc1	-15	-1	0.67	-16	i	-0.3	-10	2.3	-11
2	CCOC(=O)NC(=O)CN1C(=O)NC(C)(c2ccccc2)C1=O (stereo not drawn)	.	-4	0.71	.	.	2.3	-3	3.8	.
3	N#Cc1cc([N+](=O)[O-])ccc1N1CCCC1	-6	1	0.67	-5	i	12	-6	3.1	30
4	O=C1c2ccccc2NC2(CCCCC2)N1c1ccc(O)cc1	.	99*	0.71	.	.	-126	-5	2.6	.
5	Cc1ccc(NS(=O)(=O)c2ccc3[nH]c(=O)oc3c2)c(C)c1	1	0	0.69	-15	i	1.4	18	1.9	6.6
6	O=C1c2ccccc2C(Nc2ccc(S(=O)(=O)N3CCCCC3)cc2)N1Cc1ccco1 (stereo not drawn)	0	-3	0.74	-13	i	5.1	-9	-5.1	11
7	O=C(/C=C/c1ccco1)N/C(=C\c1ccco1)C(=O)NCCc1nc2ccccc2[nH]1	.	?	0.69	.	.	11	-9	0.5	.
8	O=C1C2C(c3cccc(/C=C/c4ccccc4)c3)CC=CC2C(c2ccc(C(F)(F)F)cc2)N1Cc1ccccc1 (stereo not drawn)	11	10	.	6	i	-6.3	9	1.0	0.8
9	COc1cccc(NC(=O)N2CCCC(C(=O)NC3CCCCC3C)C2)c1 (stereo not drawn)	6	-1	.	8	i	.	-3	1.5	0.3
10	Cc1ccc(OCc2cc(C(=O)N(C)CCc3ccccn3)no2)cc1C	1	-8	0.71	-8	i	3.0	-3	1.4	-2.8
11	COCCSc1ccccc1C(=O)Nc1nnc(C)s1	.	2	0.68	.	.	0.4	6	3.7	.
12	CCCCOc1ccc(C(=O)NCC(=O)OC2CCOC2=O)cc1 (stereo not drawn)	.	-26	0.74	.	.	5.9	-8	1.3	.
13	COc1cccc(C(=O)Nc2ccc(NC(=O)c3ccco3)c(Cl)c2)c1	-3	-5	0.64	5	i	-26	-10	-2.2	-3.3
14	O=C(NC1CCCC1)c1ccc(CS(=O)Cc2ccccc2Cl)o1 (stereo not drawn)	-4	?	0.69	-23	i	-2.1	-10	1.5	7.2
15	CC(O)(c1cccc(F)c1)c1nc(-c2cc(F)cc(F)c2)cs1 (stereo not drawn)	-59	.	.	-82	i	.	.	-6.2	-18
16	CCc1ccccc1NC(=O)C1CCN(S(C)(=O)=O)CC1	3	6	0.67	-8	i	1.2	-2	-1.4	1.7
17	CC1CCc2c(sc(NC(=O)C3c4ccccc4Oc4ccccc43)c2C(N)=O)C1 (stereo not drawn)	.	39	0.73	.	.	-6.7	-4	2.9	.
18	OCCC1CN(Cc2cc(F)ccc2-n2cccn2)CCN1Cc1ccc(F)cc1 (stereo not drawn)	10	.	0.69	-2	i	1.7	0	0.4	1.3
19	CCOC(=O)C1CCN(C(=O)C2CCCCC2)CC1	.	1	0.72	.	.	-0.1	4	3.9	.
20	COc1cc(C(=O)NCc2cccnc2)ccc1OCC(=O)Nc1cccc(C(F)(F)F)c1	-8	-4	0.65	0	i	0.6	7	0.3	-1.0
21	COC(=O)/C(C#N)=C/c1c(N2CCCCCC2)nc2ccccn2c1=O	-17	-5	0.64	-6	i	4.0	-21	-1.3	-1.1
22	Cc1ccc(N2C(=O)C3C(c4ccccc4)N4CCCN4C3(C)C2=O)cc1 (stereo not drawn)	4	9	0.67	10	i	-1.9	44*	3.3	-4.0
23	O=C(c1ccc(=O)[nH]n1)N1CCN(S(=O)(=O)c2ccc(C(F)(F)F)cc2)CC1	19	-2	0.67	9	i	3.1	-6	-1.6	2.8
24	Cc1cc(=O)[nH]c(SCC(=O)NC2CCCCCCC2)n1	.	12	0.64	.	i	3.9	1	4.9	.
25	CC(C)CNC(=S)N(CCN(C)C)Cc1cc2cc3c(cc2[nH]c1=O)OCCO3	13	-38	0.7	11	i	-119	3	1.2	4.4
26	C/C(N)=C(/C#N)C(=O)CSc1nnc(SCc2ccc(Cl)cc2)s1	-5	-4	0.68&0.75	-3	i	3.7&1.5	-4&6	-4.2&2.8	-0.4
27	Cc1ccc(-n2c(O)cnc2Nc2nc(C)cc(C)n2)cc1	.	-2	0.64	.	.	0.4	-3	-0.1	.
28	Cn1c(=O)c2nc(Cl)c(-c3ccccc3)nc2n(C)c1=O	9	0	0.66	10	i	-195	-8	0.2	-1.4
29	O=C(CSc1ccccn1)Nc1nc2c(ccc3ccccc32)s1	.	.	0.67	.	.	1.7	21	-0.1	.
30	CCN1C(=O)c2ccccc2S(=O)c2ccc(C(=O)N3CCN(C(=O)c4ccco4)CC3)cc21 (stereo not drawn)	1	.	0.77	5	i	0.8	-2	3.5	-3.0

One compound at a time, from the list above. Screens in order: rRNA inh HTS | ALR H2O2 inh | E coli growth | rRNA inh HTS OD600 | FGF22 binding | UCH37 DUB inh | Beta2AR agonist | HNF4A DNA FP | rRNA inh HTS RFP
Profile of `O=C(c1ccc(=O)[nH]n1)N1CCN(S(=O)(=O)c2ccc(C(F)(F)F)cc2)CC1` → 19 | -2 | 0.67 | 9 | i | 3.1 | -6 | -1.6 | 2.8
Profile of `Cc1cc(=O)[nH]c(SCC(=O)NC2CCCCCCC2)n1` → . | 12 | 0.64 | . | i | 3.9 | 1 | 4.9 | .
Profile of `COC(=O)/C(C#N)=C/c1c(N2CCCCCC2)nc2ccccn2c1=O` → -17 | -5 | 0.64 | -6 | i | 4.0 | -21 | -1.3 | -1.1
Profile of `Cn1c(=O)c2nc(Cl)c(-c3ccccc3)nc2n(C)c1=O` → 9 | 0 | 0.66 | 10 | i | -195 | -8 | 0.2 | -1.4
Profile of `CCc1ccccc1NC(=O)C1CCN(S(C)(=O)=O)CC1` → 3 | 6 | 0.67 | -8 | i | 1.2 | -2 | -1.4 | 1.7

Three entries already listed, sorted by the value under UCH37 DUB inh, highest first.
| No. | mol | rRNA inh HTS | ALR H2O2 inh | E coli growth | rRNA inh HTS OD600 | FGF22 binding | UCH37 DUB inh | Beta2AR agonist | HNF4A DNA FP | rRNA inh HTS RFP |
| --- | --- | --- | --- | --- | --- | --- | --- | --- | --- | --- |
| 6 | O=C1c2ccccc2C(Nc2ccc(S(=O)(=O)N3CCCCC3)cc2)N1Cc1ccco1 (stereo not drawn) | 0 | -3 | 0.74 | -13 | i | 5.1 | -9 | -5.1 | 11 |
| 2 | CCOC(=O)NC(=O)CN1C(=O)NC(C)(c2ccccc2)C1=O (stereo not drawn) | . | -4 | 0.71 | . | . | 2.3 | -3 | 3.8 | . |
| 25 | CC(C)CNC(=S)N(CCN(C)C)Cc1cc2cc3c(cc2[nH]c1=O)OCCO3 | 13 | -38 | 0.7 | 11 | i | -119 | 3 | 1.2 | 4.4 |

(continued)
#	SMILES	rRNA inh HTS	ALR H2O2 inh	E coli growth	rRNA inh HTS OD600	FGF22 binding	UCH37 DUB inh	Beta2AR agonist	HNF4A DNA FP	rRNA inh HTS RFP
31	O=C(c1ccc(-c2ccccc2)cc1)N1CCN(c2ccccc2)CC1	4	-18	0.69	2	i	3.8	-2	-2.0	2.5
32	Cc1c(C(=O)NC(=S)NCc2cccnc2)cccc1[N+](=O)[O-]	5	1	0.66	0	i	3.2	-8	0.3	-0.5
33	CCOc1cccc(CN2CCC(Oc3ccc(C(=O)N4CCCC4)cc3)CC2)c1O	7	.	.	0	i	.	.	-0.7	2.7
34	S=c1[nH]ncn1/N=C/c1cccs1	10	97*	.	5	i	.	4	1.2	-8.2
35	COc1ccc(Br)c(Cn2c(C)c(C(=O)NCc3ccc(F)cc3)sc2=O)c1	-7	.	.	-13	i	.	.	-0.8	4.4
36	C=CCOC(=O)C1=C(C)NC(SCC(=O)OCC)=C(C#N)C1c1ccc(O)c(OC)c1 (stereo not drawn)	.	.	0.77	.	.	-1.3	13	3.6	.
37	COc1ccc(NC(=O)CSc2cccc3cccnc23)c(OC)c1	-9	.	0.68	-11	i	2.4	-3	1.3	1.6
38	O=C(c1ccco1)N1CCN(S(=O)(=O)N2CCOCC2)CC1	.	.	0.71	.	.	1.7	0	-1.4	.
39	CC1CCN(CCC(=O)N2CCCc3c2c(=O)oc2ccc(O)cc32)CC1	13	1	0.72	1	.	2.0	-5	-4.5	1.0
40	O=C1C=CC(=O)N1CCCCCCCCCCN1C(=O)C=CC1=O	14	.	0.71	35	i	-1.3	16	-1.9	2.3
41	COc1ccc(C(=O)Nc2nnc(S(=O)(=O)N(C)Cc3ccc(F)cc3)s2)cc1OC	1	3	0.67	12	i	-13	0	0.9	0.0
42	COc1cccc(NC(=O)CCC2CCN(C(=O)c3sccc3C)CC2)c1	-3	-14	0.74	-5	i	2.4	2	0.5	0.0
43	CC(=O)c1c(C)[nH]c(C(=O)N(CCc2ccccc2)Cc2ccccc2)c1C	6	-2	0.69	1	i	3.0	-8	2.1	-0.7
44	CC1(C)CC(=O)c2sc(NC(=O)CN3C(=O)CCC3=O)nc2C1	2	-4	0.74	12	i	8.5	0	1.9	-0.4
45	CCOc1ccc2c(S(=O)(=O)O)cccc2c1[N+](=O)[O-]	10	.	0.66	10	i	1.5	-8	-0.8	-0.2
46	O=C(c1ccccc1)c1ccc(OCCCN2CCCC2)cc1	0	-36	0.68	6	i	2.0	-5	5.8	6.3
47	COc1ccc2nc(NC(=O)C3CCN(S(=O)(=O)c4cnc[nH]4)CC3)sc2c1	.	.	0.68	.	.	0.3	-2	0.4	.
48	Cc1ccc(C2CN(CCC(N)=O)C(=O)CO2)cc1 (stereo not drawn)	8	-1	0.68	7	i	2.2	0	4.5	5.2
49	COc1cc(CCCN2C(=O)C(=O)NC[C@@H]2CCCCN)cc(OC)c1OC	29	-4	.	29	i	1.3	7	-1.1	-3.3
50	O=C(Nc1ccc(Cl)cc1)C1Cc2c(-c3ccc(Cl)cc3)ccnc2O1 (stereo not drawn)	-3	.	.	-11	i	.	.	-5.6	5.5
51	CC(C)N(Cc1ccccc1)C(=O)CN1C(=O)COc2ccc(S(=O)(=O)NC3CCCC3)cc21	0	-4	0.66	-9	i	0.4	14	0.1	2.2
52	COc1cc(/C=N/NC(=O)[C@H](Cc2c[nH]c3ccccc23)NC(=O)OCC(C)C)cc([N+](=O)[O-])c1O	-17	32	.	-1	i	.	5	-2.9	-1.0
53	Cc1ccc(OCC(=O)N(Cc2cccs2)C2CCS(=O)(=O)C2)cc1 (stereo not drawn)	-12	-4	0.68	-1	i	2.4	-3	-2.4	0.1
54	CN1CCN(S(=O)(=O)c2ccc(Cc3ccc(S(=O)(=O)N4CCN(C)CC4)cc3)cc2)CC1	.	.	0.71	.	.	-1.6	9	0.1	.
55	Cc1ccc(NS(=O)(=O)c2ccc(NC(=O)CSc3ccc(Cl)cc3)cc2)c(C)c1	-9	-4	0.75	4	.	2.1	-1	0.3	-4.3
